Source: PubChem BioAssay (National Center for Advancing Translational Sciences (NCATS))
Cruzain Triton = inhibitors of Trypanosoma cruzi cruzain with detergent | AID 1478 | purified cruzain, Z-FR-AMC fluorescence, 0.01% Triton | Potency, µM, without a hit: max response, negative = inhibition, usual class: inhibitors | P25779 | hit rate 0.43% among 200,000;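 note: plate controls were neutral wells for no effect and buffer without enzyme for full effect; nearly all actives have a fitted effect of over 40% in size; top concentration of the series not given in the record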
Target sequence (P25779 123-467 limits assumed): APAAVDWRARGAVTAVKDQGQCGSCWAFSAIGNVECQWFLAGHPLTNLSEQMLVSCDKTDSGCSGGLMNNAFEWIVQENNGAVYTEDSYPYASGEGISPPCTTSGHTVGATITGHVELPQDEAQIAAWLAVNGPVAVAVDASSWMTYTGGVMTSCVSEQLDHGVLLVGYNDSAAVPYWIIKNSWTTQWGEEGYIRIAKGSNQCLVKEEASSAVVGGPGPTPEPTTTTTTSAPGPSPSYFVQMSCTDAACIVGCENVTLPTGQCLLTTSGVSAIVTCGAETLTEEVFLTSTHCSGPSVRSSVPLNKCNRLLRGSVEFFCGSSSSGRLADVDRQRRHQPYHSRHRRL
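15 min RT preincubation of 1.5 nM cruzain with compound, then 2 uM Z-FR-AMC added; kinetic AMC fluorescence, 60 s delta. Triton X-100 0.01%, pH 5.5.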
SARS PLpro yeast = SARS-CoV PLP inhibition in yeast; S. cerevisiae expressing SARS-CoV PLpro, growth rescue; control for the full effect not named in the record; Potency, µM (titrated, usually from 32.9 µM), for inactives: top-dose activity, positive = growth rescue; hit rate 0.19% among 330,000; active means well fitted rising curve with a large enough effect; inconclusive means small, poorly fitted or top-dose-only effect; inactive means no such curve, though single readings can be large or run the other way; note: 0% is about no effect; nearly all actives have a fitted effect of over 55% in size; growth read by luminescence after 48 h
LASV entry inh = Lassa virus entry inhibition; Lassa virus pseudotype entry inhibition, cell reporter; control for the full effect not named in the record; Potency, µM (series often up to 37.9 µM), for inactives: top-dose activity change, negative = inhibition, hits mostly inhibitors; hit rate 1.2% among 300,000; AID 540256; active means well fitted inhibition curve with a large enough effect; inconclusive means small, poorly fitted or top-dose-only effect, or effect the other way; inactive means flat fitted curve, though single readings scatter; tested in HEK293 cells; note: % is set by controls: 0 for no effect and ±100 for the full control effect; nearly all actives have a fitted effect of over 50% in size; luciferase read-out
NS1 inh = inhibitors of influenza NS1 protein function. Potency, µM (top dose mostly 46.1 µM), for the others: at the top dose activity, positive = more growth. S. cerevisiae slowed by influenza A NS1, growth recovery by OD600. hit rate 0.4% among 270,000. AID 2326; active means well fitted rising curve with a large enough effect; inconclusive means small, poorly fitted or top-dose-only effect; inactive means no such curve, though single readings can be large or run the other way; note: nearly all actives have a fitted effect of over 50% in size
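A cell-based growth assay was used: compounds that relieve NS1-induced slow growth of budding yeast raise OD600. Assay medium was yeast nitrogen base with ammonium sulphate and -URA supplement, pH 6.0, with 2% galactose.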
MARV entry inh = blocks Marburg virus binding to or entry into cells. Marburg virus pseudotyped entry inhibition, cell reporter; control for the full effect not named in the record; about a third of the inactives were read at about 46 µM. Potency, µM (titrated, usually from 37.8 µM), for the others: at the top dose activity change, negative = inhibition, most hits filed as inhibitors. hit rate 1.8% among 300,000. AID 540276; active = well fitted inhibition curve with a large enough effect; inconclusive = small, poorly fitted or top-dose-only effect, or effect the other way; inactive = flat fitted curve, though single readings scatter; tested in HEK293 cells; about a fifth of its hits are not listed in these tables; note: % is set by controls: 0 for no effect and ±100 for the full control effect; luciferase read-out
Cruzain noTriton = blocks cruzain activity in detergent-free assay. P25779. purified cruzain, Z-FR-AMC fluorescence, no detergent. Potency, µM, inactives show max response, negative = inhibition, actives largely listed as inhibitors. hit rate 2.3% among 200,000. AID 1476;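 note: plate controls were enzyme without inhibitor for no effect and buffer without enzyme for full effect; nearly all actives have a fitted effect of over 40% in size; top concentration of the series not given in the record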
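Purified cruzain at 1.5 nM, pre-incubated 15 min with compound at room temperature in 100 mM sodium acetate pH 5.5, 5 mM DTT, 0.00005% Triton X-100. Reaction started with 2 uM Z-FR-AMC; AMC fluorescence increase over 60 s gives rate.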
RE007 growth inh = less growth of the S. pombe RE007 Vpr strain | hit rate 0.21% among 360,000 | Potency, µM (titrated, usually from 92.2 µM), for the others: at the highest dose activity change, negative = less growth | S. pombe RE007 Vpr strain, BacTiter-Glo ATP luminescence, 24 h; control for the full effect not named in the record; active = well fitted falling curve with a large enough effect; inconclusive = small, poorly fitted or top-dose-only effect; inactive = no such curve, though single readings can be large or run the other way;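 note: % is set by controls: 0 for no effect and ±100 for the full control effect; nearly all actives have a fitted effect of over 50% in size; the assay follows cell death caused by Vpr and the record does not say whether a fall means rescue or toxicity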
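Fission yeast strain RE007, carrying one chromosomally integrated HIV-1 vpr copy, was seeded at OD 0.01 in PMG+AL medium with 23 nL pinned compound. After 24 h at 30 °C and 99% humidity, viability was read by BacTiter-Glo luminescence.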
2A StopGo = lowers the luciferase signal of an FMDV 2A StopGo reporter; human cells with a luciferase reporter of 2A StopGo recoding; control for the full effect not named in the record; Potency, µM (highest dose often 57.9 µM), without a hit: at the top dose signal change, negative = less light; hit rate 1.2% among 410,000; AID 1159524; active = well fitted falling curve with a large enough effect; inconclusive = small, poorly fitted or top-dose-only effect; inactive = no such curve, though single readings can be large or run the other way; tested in HEK293T cells; note: % is set by controls: 0 for no effect and ±100 for the full control effect; nearly all actives have a fitted effect of over 45% in size; luciferase light after 4 h
Active calls of the source: *; ? = inconclusive; nt = no result given; & = joins results of further samples; [ ] = remark or other dose. Unless noted, calls come from the whole dose curve; as a rule, active = well fitted curve in the direction sought with a large enough effect; inconclusive = small, poorly fitted or top-dose-only effect, or another doubt; inactive = no such curve, though single readings can be large; an effect the other way counts as inactive or inconclusive. Potency is the fitted concentration of half-maximal effect.

SMILES	Cruzain Triton	SARS PLpro yeast	LASV entry inh	NS1 inh	MARV entry inh	Cruzain noTriton	RE007 growth inh	2A StopGo
Cc1c(N2C(=O)/C(=C\c3cccc4ccccc34)SC2=S)c(=O)n(-c2ccccc2)n1C	-5.6%	-7%	-12%	8%	-27%	-2%	1%	?
COc1ccc(C2=Nc3ccc(Br)cc3C(c3ccccc3)N2CC(=O)NN)cc1 (stereo not given)	-28%	23%	?	?	-1%	-28%	2%	-6%
CCC(CC)NC(=O)CSc1nnc(-c2c[nH]c3ccccc23)o1	nt	-1%	1%[46.1 µM]	nt	5%[46.1 µM]	nt	5%	-11%
CCOc1cc(C2C(C(=O)N3CCOCC3)=C(C)NC3=C2C(=O)CCC3)ccc1O (stereo not given)	-2.2%	16%	4%	-10%	1%	-2%	0%	nt
Cn1c(CNC(=O)C(Cc2ccccc2)NC(=O)c2cccc(F)c2)cc(=O)n(C)c1=O (stereo not given)	nt	2%	nt	8%	nt	nt	-4%	2%
CCC1CCCCN1CCCNC(=O)CNC(=O)Cn1ccc2ccccc2c1=O (stereo not given)	-0.2%	4%	17%	5%	6%&6%	-7%	-4%	-24%
CS(=O)(=O)NN1C(=O)c2ccccc2NC1c1cc2ccccc2nc1Cl (stereo not given)	-2.9%	-9%	3%	10%	30%	-12%	7%	40%[activator]
COc1cc(NC(=O)c2cnc(N)s2)cc(C(=O)Nc2cccc(C(F)(F)F)c2)c1	nt	3%	nt	10%	nt	nt	5%&2%	-2%&6%
CCOc1ccc(NC(=O)N2CCN3CCCCC3C2)cc1 (stereo not given)	-2.2%	nt	18%[46.1 µM]	nt	nt	2%	nt	-13%
COc1ccccc1N1CCN(C(=O)c2nn(C)c3c2CS(=O)(=O)c2ccccc2-3)CC1	-2.7%	-4%	1%[46.1 µM]	-1%	nt	-1%	-13%	-15%&3%
CCN(CC)S(=O)(=O)c1cccc(-c2nnc(SC(C)C(N)=O)n2CCc2ccccc2)c1 (stereo not given)	2.1%	-7%	-16%	2%	-4%[46.1 µM]	?	-6%	-17%
OC(CNCc1ccccc1C(F)(F)F)C(F)(F)F (stereo not given)	nt	1%	2%	5%	3%	nt	26%	2%
COc1ccc(NC(=O)CN(C)C(=O)CCNC(=O)Nc2ccccc2)cc1	nt	-3%	4%	nt	13%	nt	5%	-8%
O=C1/C(=C\c2cc(Br)cc(Br)c2O)SC(=S)N1Cc1ccccc1	nt	-2%	?	-5%	25%	nt	-29%	?
CC12CN3CC(c4ccccc4)(CN(C1)C3c1ccc(Cl)cc1)C2=O (stereo not given)	-5.1%	nt	-6%[46.1 µM]	nt	13%[46.1 µM]	0%	nt	?
O=C(Nc1ccccc1)c1cc2c(=O)c3ccccc3oc2nc1C(F)(F)F	-0.9%	4%	0%	1%	-28%	?	7%	-10%
CN=C(Nc1ccccc1)SC1CC(=O)N(c2ccc(C(=O)OC)cc2)C1=O (stereo not given)	-6.0%	-4%	?	-34%	-8%	?	8%	?
O=C(COc1ccccc1)Nc1ccccc1C(=O)NC1CC1	nt	2%	-13%[46.1 µM]	nt	-2%	nt	-17%	-2%
CCC(C)(C(=O)NC1CCCCC1)N(Cc1ccco1)C(=O)CC1NC(=O)NC1=O (stereo not given)	4.0%	2%	-4%	?	?	0%	-2%	-10%
CCSc1ncc(Cl)c(C(=O)Nc2ccc(S(N)(=O)=O)cc2)n1	nt	1%	1%[46.1 µM]	4%	?	nt	2%	-19%
CC1(C)C(=O)Nc2ccccc2N1C(=O)CN1C(=O)C(=O)N(C2CCCC2)C1=O	nt	-2%	-18%[46.1 µM]	nt	?	nt	11%	6%
O=C(CSc1nnc(-c2ccncc2)n1-c1ccccc1Cl)Nc1ccc(C(=O)O)cc1	nt	3%	-1%[46.1 µM]	nt	?	nt	7%	5%
O=C(c1cc2cc3ccc(Cl)cc3nc2o1)N1CCN(Cc2ccc3c(c2)OCO3)CC1	nt	nt	10%	-1%	11%[46.1 µM]	nt	-16%	0%
CCCCSc1nnc(-c2ccc(C)cc2)o1	-2.2%	2%	36%[14.3 µM]	6%	-17%	-5%	-12%	18%
CCOc1cc(/C=C/C(=O)OCC(=O)NC2CCS(=O)(=O)C2)ccc1OCc1ccccc1 (stereo not given)	nt	-2%	-25%	nt	26%[46.1 µM]	nt	-5%	-15%
Cc1cc(OCC(=O)N2CCN(c3ccc(F)cc3)CC2)c2c(C)cc(=O)oc2c1	nt	-3%	nt	6%	nt	nt	11%	?
CC(=O)c1ccc(Cc2cnc(N)s2)cc1	6.3%	-1%	1%	2%	19%	-8%	12%	-5%
O=C(O)C1CC=CCC1C(=O)Nc1ccccc1Cl (stereo not given)	2.3%	1%	18%	-4%	1%	-1%	-13%	-22%
COc1ccccc1NC(=O)C1CCCN1C(=O)NCc1ccccc1 (stereo not given)	1.0%	5%	1%	1%	?	-10%	8%	11%
O=C(Nc1ccccc1-c1ccccc1)c1cccs1	nt	-1%	10%	3%	?	nt	-13%	-14%
CCC(=O)Nc1ccc2c(c1)ncn2C	nt	0%	-9%[46.1 µM]	0%	?	nt	6%	3%
CCCCn1cnc2c(c(CC#N)nn2-c2ccccc2)c1=N	2.5%	nt	11%	0%	17%	-8%	20%	-12%
CCOC(=O)N1CCC(N(C(=O)Nc2ccc(CC)cc2)C(C)CC)CC1 (stereo not given)	5.4%	-2%	-9%	-35%	10%	-3%	4%	44%[activator]
CC1CCCC(NC(=O)COC(=O)COc2cccc(F)c2)C1C (stereo not given)	nt	-13%	-25%[46.1 µM]	nt	11%[46.1 µM]	nt	9%	0%
CNC(=O)Cn1c(C)cc(=O)c2cccc(OC)c21	nt	1%	?	0%	-10%	nt	10%	3%
CCOC(NC(=O)c1ccccc1)C(NC(=O)c1ccccc1)OCC (stereo not given)	5.3%	0%	8%	-2%	20%	-3%	0%	4%
O=C(CCc1nc2ccccc2s1)N1CCN(S(=O)(=O)c2cccs2)CC1	0.9%	-3%	-8%	-8%	-8%	14%	-14%	-8%
N#Cc1ccccc1NC(=S)NC(=O)c1cccs1	nt	-16%	nt	-17%	nt	nt	-21%	42%[activator]
Cc1cc(C)n(-c2nc(NCC(C)O)c3c4c(sc3n2)COC(C)(C)C4)n1 (stereo not given)	-2.7%	0%	0%	-9%	?	-9%	9%	-1%
Cc1c(NC(=S)NC(=O)c2sc3ccccc3c2Cl)cccc1C(=O)O	nt	-3%	nt	2%	nt	nt	5%	-24%
O=C(NCCC1CCCC1)C1CCC(=O)N(CCCN2CCCC2=O)C1 (stereo not given)	nt	6%	nt	16%	nt	nt	4%	-16%
COc1ccc(/C=N/NC(=O)c2cccnc2)cc1CSc1ccccn1	nt	3%	-8%[46.1 µM]	-10%	?	nt	11%	7%
O=C(Cc1ccccc1)N/N=C/C=C/c1ccccc1[N+](=O)[O-]	nt	0%	-3%	-8%	0%[14.2 µM]	nt	-3%	32%[activator]
CCc1nnc(NS(=O)(=O)c2ccc(NC(=O)CCC(=O)O)cc2)s1	nt	2%	nt	-14%	nt	nt	-4%	-7%
Cc1nn2c(=O)cc(COC(=O)c3cccc(NC(=O)c4ccc(C(C)(C)C)cc4)c3)nc2s1	-3.4%	nt	?	nt	nt	17%	nt	5%
CCOc1cc(C(=O)Nc2ccccc2N2CCOCC2)ccc1OCC(=O)N1CCOCC1	nt	5%	-2%	nt	1%	nt	-18%	-3%
COC(=O)c1ccccc1NC(=O)CSc1nc2ccccc2nc1Cc1ccc(F)cc1	4.4%	nt	?	nt	nt	-4%	nt	-17%
CCNC(=S)Nc1cccc(NC(=O)c2ccccc2O)c1	nt	-2%	?	-3%	2%	nt	3%	37%[activator]
COc1ccc(-c2nc(N)c(C#N)c(-c3cccnc3)c2C)cc1	nt	0%	nt	-31%	nt	nt	-7%	-14%
Clc1ccc2c(c1)c1cc(Cl)ccc1n2CN1CCOCC1	-7.7%	-115%	?	-31%	-22%	13%	?	-6%

The list continues.
SMILES	Cruzain Triton	SARS PLpro yeast	LASV entry inh	NS1 inh	MARV entry inh	Cruzain noTriton	RE007 growth inh	2A StopGo
Cc1cc(C(=O)COc2nncc3ccccc23)c(C)n1C	2.8%	-5%	-2%	?	?	-6%	1%	41%[activator]
O=C(Cn1c(=O)n(CC2CCC(C(=O)NCCc3ccccc3)CC2)c(=O)c2ccccc21)Nc1ccccc1 (stereo not given)	5.9%	nt	-3%[46.1 µM]	nt	5%[46.1 µM]	8%	nt	-12%
C(=NN=C(NN=Cc1cccs1)NN=Cc1cccs1)c1cccs1	nt	nt	?	nt	?	nt	7%	-7%
CCOC(=O)c1c(C)nc(SCC(N)=O)c(C#N)c1-c1ccccc1	-1.9%	-1%	0%	0%	16%	-2%	4%	?
COc1ccc2c(CC(=O)NCc3ccc4c(c3)OCO4)coc2c1	-1.7%	-3%	-2%	-5%	4%	0%	-7%	28%
CCN(c1ccccc1)S(=O)(=O)c1nnc(NC(=O)CC(C)C)s1	nt	1%	-2%	0%	nt	nt	-4%	-4%
Cc1c(C(=O)Nc2ccc(F)cc2F)oc2c1-c1nn(Cc3c(F)cccc3Cl)cc1CC2	-0.1%	nt	9%[46.1 µM]	nt	nt	-1%	nt	-20%
COC(=O)C(N)Cc1ccc(Cl)cc1 (stereo not given)	4.2%	nt	26%	5%	?	6%	7%[18.4 µM]	-19%
Cc1ccc(NC(=S)NNC(=O)c2nn(C)c(C)c2Cl)cc1	-4.3%	-7%	12%	-2%	3%	-1%	13%	72%[activator]
CCCCn1c(SCC(=O)NC2CCS(=O)(=O)C2)nnc1-c1ccc(OC)cc1 (stereo not given)	nt	6%	17%	nt	?	nt	10%	-7%
COc1ccc(C2C=C(c3ccc(Cl)cc3)Nc3nc(-c4ccc(Cl)cc4)nn32)cc1 (stereo not given)	-6.6%	nt	?	nt	?	15%	nt	?
